FGF22 binding – binders of human FGF22 protein, primary screen, FGF22 synaptogenesis inhibitor project, biophysical, thermal shift, single point. Fibroblast growth factor 22 (Homo sapiens), Q9HCT0. recombinant FGF22 thermal shift, SYPRO orange fluorescence; percent of sucrose octasulfate shift, DMSO zero. 340,000 compounds, 1.5% hits. calls only at 9.99 µM;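 active = melting point raised past a set limit in the mean and every replicate; three in four hits are not shown here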
Target sequence (Q9HCT0 whole entry, looked up): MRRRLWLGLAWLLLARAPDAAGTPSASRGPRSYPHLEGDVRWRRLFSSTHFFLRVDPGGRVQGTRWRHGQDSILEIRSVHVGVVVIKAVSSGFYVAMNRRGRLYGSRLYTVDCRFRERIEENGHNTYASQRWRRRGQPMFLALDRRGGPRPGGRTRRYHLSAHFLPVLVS
MLL AF4-AF9 inh – inhibitors of AF4 peptide binding to AF9, primary screen, biochemical, AlphaScreen, biotin-AF4 peptide, FLAG-AF9, single point. Protein AF-9 (Homo sapiens), P42568. inhibition, % at 10 µM. 350,000 compounds, 0.47% hits;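 active = every replicate reaching a set inhibition limit, whatever the replicate mean, cut at about 25% in these data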;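 note: 0% = plate neutral control median and 100% = total signal loss; the record names both 10 and 1 µM as test concentration; the first replicate is given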
Target sequence (P42568 whole entry, looked up): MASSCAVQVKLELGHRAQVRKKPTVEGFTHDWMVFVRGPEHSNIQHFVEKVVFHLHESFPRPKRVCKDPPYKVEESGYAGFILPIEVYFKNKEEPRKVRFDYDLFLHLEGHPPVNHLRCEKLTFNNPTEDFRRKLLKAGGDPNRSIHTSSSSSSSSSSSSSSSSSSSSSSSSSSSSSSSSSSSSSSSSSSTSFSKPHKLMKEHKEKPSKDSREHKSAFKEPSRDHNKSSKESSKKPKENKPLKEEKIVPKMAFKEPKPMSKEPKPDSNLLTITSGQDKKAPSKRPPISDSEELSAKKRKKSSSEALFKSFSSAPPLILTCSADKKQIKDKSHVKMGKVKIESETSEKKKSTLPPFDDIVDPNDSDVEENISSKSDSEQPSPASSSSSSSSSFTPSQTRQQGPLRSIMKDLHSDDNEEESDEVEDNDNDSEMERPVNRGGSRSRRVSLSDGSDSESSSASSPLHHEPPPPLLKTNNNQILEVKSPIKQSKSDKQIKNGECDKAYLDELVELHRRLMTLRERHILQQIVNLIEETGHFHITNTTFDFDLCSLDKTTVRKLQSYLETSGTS
rRNA inh HTS – reduced GFP signal of wild-type E. coli, primary screen, bacterial rRNA inhibitor project, GFP/RFP fluorescence, OD600, single point; E. coli WT GFP vs humanized-ribosome RFP mutants, 24 h; stronger effect = lower value; DMSO median 0, no signal -100; 350,000 compounds, 1.6% hits; GFP signal change (wild-type ribosome), % (no concentration beside the values);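 active = significant combined selectivity score with lowered wild-type GFP, culture density cut under 30%, mutant RFP and density less affected; inactive = any of these conditions unmet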; note: one replicate is shown; some compounds called inactive have numbers as strong as hits
rRNA inh HTS OD600 – further read-out of rRNA inh HTS, marked with its call; OD600 change, %; measured here: OD600 growth;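 optical density of the mix in the first replicate; 0 = DMSO median and -100 = no signal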
rRNA inh HTS RFP – also measured in rRNA inh HTS; calls as there; RFP signal change, %; measured here: RFP humanized mutant strains;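 first replicate; 0 = DMSO median and -100 = no signal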
* marks the source's active call; other numbers are inactive results; i = inactive; / = not tested or not shown. These rows are one share of the data; the hit share may differ from the screen's.

Keys: A = FGF22 binding; B = MLL AF4-AF9 inh; C = rRNA inh HTS; D = rRNA inh HTS OD600; E = rRNA inh HTS RFP
> O=C(C[C@@H]1C=C[C@@H](NS(=O)(=O)c2ccccc2)[C@H](CO)O1)N1CCc2ccccc2C1
  A = i; B = -3.0; C = 1; D = -2; E = -1.1
> COc1ccc2c3c([nH]c2c1)[C@@H](CO)N(C(=O)C1CCC1)CC31CN(C)C1
  A = i; B = 0.9; C = 3; D = 8; E = -1.2
> C[C@@H]1CN([C@@H](C)CO)C(=O)c2cc(C3=CCCC3)cnc2O[C@H]1CN(C)C(=O)c1ccc2c(c1)OCO2
  A = i; B = 0.1; C = -3; D = -7; E = -0.8
> Cc1noc(C)c1NC(=O)N(C)C[C@@H]1Oc2c(NC(=O)Nc3ccc(C(F)(F)F)cc3)cccc2C(=O)N([C@H](C)CO)C[C@@H]1C
  A = i; B = -3.0; C = -3; D = -6; E = -1.2
> O=S1(=O)N[C@@H](Cc2ccccc2)COc2cccc(N3CCN(Cc4ccccc4F)CC3)c21
  A = i; B = 8.2; C = -26; D = -28; E = -6.0
> OC[C@@H]1CN(Cc2ccco2)C[C@H](n2cnc3c(N4CCN(c5ccccc5)CC4)ncnc32)O1
  A = i; B = 5.8; C = 4; D = -14; E = -0.2
> CCOC(=O)[C@]12Cc3c(cc(OC)c(OC)c3OC)[C@H]1N(Cc1ccccc1)C(=O)c1cc(F)c(F)cc12
  A = i; B = 0.1; C = 5; D = 1; E = -4.3
> CCOC1=C2[C@H]([C@H]3C(=O)N(c4ccccc4)C(=O)[C@H]3C1)[C@@H](C(C)C)N(S(=O)(=O)c1ccc(C)cc1)[C@H]2c1ccccc1
  A = i; B = -118; C = 5; D = 5; E = -0.5
> N#Cc1ccc(C(=O)N(Cc2ccco2)c2c(N)n(Cc3ccccc3)c(=O)[nH]c2=O)cc1
  A = i; B = -3.4; C = -1; D = -6; E = 5.3
> Cc1ccc(S(=O)(=O)N(C)C[C@@H]2OCc3ccccc3-c3c(n(C)c4ccccc34)C(=O)N([C@@H](C)CO)C[C@H]2C)cc1
  A = i; B = 0.8; C = 2; D = 5; E = -2.8
> C[C@@H]1CN([C@@H](C)CO)C(=O)c2cc(NC(=O)Nc3ccc4c(c3)OCO4)ccc2O[C@@H]1CN(C)Cc1ccccc1
  A = i; B = 9.9; C = -1; D = -9; E = 3.6
> COc1cccc(CN(C)C[C@H]2OCc3cnnn3CCCC(=O)N([C@@H](C)CO)C[C@H]2C)c1
  A = i; B = 1.0; C = -1; D = 0; E = -1.8
> Cn1c(O)c(C=NCCCCCC(=O)O)c(=O)n(C)c1=O
  A = i; B = 10; C = 15; D = 4; E = -2.4
> COc1cccc(CN(C)C[C@@H]2OCc3cnnn3CCCC(=O)N([C@@H](C)CO)C[C@@H]2C)c1
  A = i; B = 0.8; C = 0; D = 0; E = -0.1
> COc1ccc(Cl)c(-c2cc(C(=O)NC(C)C)[nH]n2)c1
  A = i; B = -0.3; C = -2; D = 6; E = 4.4
> O=C(NCCc1ccncc1)[C@H]1N[C@H]2c3ccc(/C=C/c4ccccc4)c(=O)n3C[C@H]2[C@@H]1CO
  A = i; B = 3.3; C = -3; D = -6; E = 0.8
> CCCC#Cc1ccc2c(c1)O[C@H](CN(C)C(=O)NCCC)[C@@H](C)CN([C@H](C)CO)S2(=O)=O
  A = i; B = -0.7; C = -4; D = -8; E = 2.0
> CO[C@@H]1CN(C)C(=O)c2ccc(NC(=O)c3nc4ccccc4s3)cc2OC[C@H](C)N(Cc2cncnc2)C[C@H]1C
  A = i; B = 5.8; C = -6; D = -9; E = -0.9
> Cc1nnc2c3ccccc3ccn12
  A = i; B = 1.8; C = 10; D = 8; E = 1.8
> COC(=O)C[C@@H]1CC[C@@H]2[C@@H](COc3ccc(NC(=O)c4cscn4)cc3C(=O)N2C)O1
  A = i; B = -1.7; C = 2; D = -5; E = 2.6
> C[C@H]1CN([C@@H](C)CO)C(=O)c2cccc(NC(=O)Nc3ccc4c(c3)OCO4)c2O[C@H]1CN(C)Cc1ccccc1
  A = i; B = 7.7; C = 0; D = -2; E = 1.9
> C[C@H]1CN([C@@H](C)CO)S(=O)(=O)c2ccc(C3=CCCC3)cc2O[C@H]1CN(C)Cc1ccccc1F
  A = i; B = 6.1; C = 0; D = -8; E = 2.4
> COc1ccc2c3c(n(C)c2c1)[C@H](CO)NCC31CN(C(=O)Nc2ccc3c(c2)OCO3)C1
  A = i; B = -1.0; C = 1; D = 6; E = 3.3
> O=C(C[C@@H]1C=C[C@@H](NC(=O)c2ccc3c(c2)OCO3)[C@H](CO)O1)NC1Cc2ccccc2C1
  A = i; B = 0.5; C = -1; D = -1; E = 0.1
> COCC#Cc1cnc2c(c1)C(=O)N([C@@H](C)CO)C[C@@H](C)[C@@H](CN(C)C(=O)Nc1ccccc1F)O2
  A = i; B = -2.4; C = 2; D = -1; E = -2.6

The last two records of the section above lead into the next:
Keys: A = FGF22 binding; B = MLL AF4-AF9 inh; C = rRNA inh HTS; D = rRNA inh HTS OD600; E = rRNA inh HTS RFP
> O=C(C[C@@H]1C=C[C@@H](NC(=O)c2ccc3c(c2)OCO3)[C@H](CO)O1)NC1Cc2ccccc2C1
  A = i; B = 0.5; C = -1; D = -1; E = 0.1
> COCC#Cc1cnc2c(c1)C(=O)N([C@@H](C)CO)C[C@@H](C)[C@@H](CN(C)C(=O)Nc1ccccc1F)O2
  A = i; B = -2.4; C = 2; D = -1; E = -2.6
> COc1ccc(S(=O)(=O)N(C)C[C@@H]2Oc3c(NC(=O)c4ccncc4)cccc3C(=O)N([C@H](C)CO)C[C@H]2C)cc1
  A = i; B = -3.0; C = 1; D = 3; E = 0.1
> COc1ccc(S(=O)(=O)N(C)C[C@@H]2OCCCC[C@H](C)Oc3ccc(NC(=O)Nc4c(C)noc4C)cc3C(=O)N([C@@H](C)CO)C[C@@H]2C)cc1
  A = i; B = 0.5; C = 2; D = -4; E = -0.7
> O=C(c1ccncc1)N(c1ccc(N2CCOCC2)cc1)C(c1ccccc1)c1nc2ccccc2[nH]1 (stereo not given)
  A = i; B = 1.4; C = -5; D = 0; E = 1.1
> CO[C@H]1CN(C)C(=O)c2ccc(NC(=O)C3CCC3)cc2OC[C@H](C)N(Cc2ccncc2)C[C@@H]1C
  A = i; B = 1.3; C = -2; D = -5; E = 1.5
> CN1C(=O)c2cc(NS(C)(=O)=O)ccc2OC[C@H]2O[C@H](CC(=O)NCc3ccc(-c4ccccc4)cc3)CC[C@H]21
  A = i; B = -7.2; C = -11; D = -40; E = 0.5
> COc1ccc(NC(=O)Nc2ccc3c(c2)C(=O)N([C@@H](C)CO)C[C@H](C)[C@H](CN(C)Cc2ccc4c(c2)OCO4)OCCCC[C@H](C)O3)cc1
  A = i; B = 18; C = 2; D = -26; E = 7.4
> Cc1ccc(S(=O)(=O)Nc2ccc3c(c2)C(=O)N([C@H](C)CO)C[C@H](C)[C@H](CN(C)S(=O)(=O)c2c(C)noc2C)OCCCC[C@@H](C)O3)cc1
  A = i; B = -2.8; C = 4; D = 6; E = 0.3
> C[C@H](CO)N1C[C@H](C)[C@H](CN(C)Cc2ccncc2)OCCCC[C@H](C)Oc2ccc(NC(=O)c3ccccc3)cc2C1=O
  A = i; B = 5.5; C = -2; D = -2; E = 0.2
> N#Cc1ccc(C=NN2CCCCCC2)cc1
  A = i; B = 21; C = 42; D = -43; E = -17
> CCNC(=O)C[C@@H]1CC[C@@H]2NC[C@@H](O)COC[C@H]2O1
  A = /; B = 0.0; C = 17; D = 19; E = 2.4
> CC(C)CC#Cc1ccc2c(c1)O[C@H](CN(C)C(=O)c1cccc(F)c1)[C@H](C)CN([C@H](C)CO)S2(=O)=O
  A = i; B = 2.0; C = 0; D = -11; E = 0.2
> O=C(C[C@H]1C=C[C@@H](NC(=O)Nc2ccc3c(c2)OCO3)[C@@H](CO)O1)NCCCN1CCOCC1
  A = i; B = 0.1; C = 2; D = 3; E = 1.9
> COc1ccccc1CNC(=O)C[C@H]1CC[C@@H]2[C@H](COC[C@H](O)CN2C(=O)Nc2ccc(C(F)(F)F)cc2)O1
  A = i; B = -0.5; C = -55; D = -78; E = -12
> CCN(CC(=O)N1CCC(C(N)=O)CC1)S(=O)(=O)c1cc(Cl)ccc1Cl
  A = i; B = -2.7; C = 12; D = 15; E = 1.2
> CCNC(=O)C[C@H]1CC[C@H]2[C@H](COc3ccc(NC(=O)C4CCCCC4)cc3C(=O)N2C)O1
  A = i; B = -1.5; C = -6; D = -26; E = -0.6
> CC(=O)c1cccc(NC(=O)C2Cc3c(-c4cccc(C(C)=O)c4)ccnc3O2)c1 (stereo not given)
  A = i; B = -4.1; C = -7; D = -26; E = -7.0
> COCCNC(=O)c1cccc2c(-c3cccc(C(N)=O)c3)coc12
  A = i; B = -2.7; C = -7; D = -3; E = -3.5
> COC(=O)C[C@@H]1CC[C@@H](NC(=O)Nc2cc(F)ccc2F)[C@@H](CO)O1
  A = i; B = -2.8; C = 3; D = 1; E = 2.2
> O=C(NCc1ccncc1)[C@@H]1[C@@H](CO)[C@@H]2Cn3c(ccc(-c4cccnc4)c3=O)[C@@H]2N1C(=O)C1CC1
  A = i; B = -18; C = 5; D = 2; E = 1.0
> CC(C)NC(=O)Nc1cccc2c1O[C@@H](CN(C)S(=O)(=O)c1ccc(Cl)cc1)[C@H](C)CN([C@H](C)CO)C2=O
  A = i; B = -1.8; C = -4; D = -4; E = -3.5
> CCc1ccc(/C=C2\SC(=S)N(CCCC(=O)N(CCO)c3ccccc3)C2=O)cc1
  A = i; B = 6.1; C = -8; D = -27; E = 18
> Cc1ccc(NC(=O)CN(C)C(=O)c2cccc(-n3cccc3)c2)cc1
  A = i; B = 8.8; C = -6; D = -6; E = 0.6
> CC=Cc1ccc2n(c1=O)C[C@H]1[C@H](CO)[C@@H](C(=O)NCC3CCCCC3)N(C(C)=O)[C@@H]21 (mixture of isomers)
  A = i; B = 0.5; C = 1; D = 7; E = -0.3
> CC(C)CC#Cc1ccc2c(c1)O[C@@H](CN(C)Cc1ccc(F)cc1)[C@H](C)CN([C@@H](C)CO)S2(=O)=O
  A = i; B = 0.0; C = 4; D = 12; E = -4.3
> C[C@H]1CN([C@@H](C)CO)C(=O)c2cc(-c3cncnc3)cnc2O[C@H]1CN(C)C(=O)c1ccccc1F
  A = i; B = 0.1; C = 0; D = 4; E = -4.3

In a second layout: six of the compounds above.
Structure | FGF22 binding | MLL AF4-AF9 inh | rRNA inh HTS | rRNA inh HTS OD600 | rRNA inh HTS RFP
CCNC(=O)C[C@H]1CC[C@H]2[C@H](COc3ccc(NC(=O)C4CCCCC4)cc3C(=O)N2C)O1 | i | -1.5 | -6 | -26 | -0.6
CC(=O)c1cccc(NC(=O)C2Cc3c(-c4cccc(C(C)=O)c4)ccnc3O2)c1 (stereo not given) | i | -4.1 | -7 | -26 | -7.0
COCCNC(=O)c1cccc2c(-c3cccc(C(N)=O)c3)coc12 | i | -2.7 | -7 | -3 | -3.5
COC(=O)C[C@@H]1CC[C@@H](NC(=O)Nc2cc(F)ccc2F)[C@@H](CO)O1 | i | -2.8 | 3 | 1 | 2.2
O=C(NCc1ccncc1)[C@@H]1[C@@H](CO)[C@@H]2Cn3c(ccc(-c4cccnc4)c3=O)[C@@H]2N1C(=O)C1CC1 | i | -18 | 5 | 2 | 1.0
CC(C)NC(=O)Nc1cccc2c1O[C@@H](CN(C)S(=O)(=O)c1ccc(Cl)cc1)[C@H](C)CN([C@H](C)CO)C2=O | i | -1.8 | -4 | -4 | -3.5

(more compounds)
Keys: A = FGF22 binding; B = MLL AF4-AF9 inh; C = rRNA inh HTS; D = rRNA inh HTS OD600; E = rRNA inh HTS RFP
> O=C(C[C@H]1CC[C@H]2[C@@H](COC[C@@H](O)CN2C(=O)Nc2ccc(Cl)c(Cl)c2)O1)NC1CCC1
  A = i; B = 1.8; C = -56; D = -73; E = -14
> C[C@H](O)C#Cc1cnc2c(c1)C(=O)N([C@@H](C)CO)C[C@@H](C)[C@H](CN(C)C(=O)Nc1ccc(C(F)(F)F)cc1)O2
  A = i; B = -1.2; C = 1; D = -3; E = -0.3
> C[C@@H]1CN([C@@H](C)CO)C(=O)c2cc(-c3ccc(F)cc3)cnc2O[C@@H]1CN(C)C(=O)c1ccc(F)cc1
  A = i; B = -2.0; C = -2; D = -11; E = 0.0
> Cc1noc(C)c1S(=O)(=O)Nc1ccc2c(c1)C(=O)N([C@@H](C)CO)C[C@@H](C)[C@@H](CN(C)S(=O)(=O)c1ccc(Cl)cc1)OCCCC[C@H](C)O2
  A = i; B = 3.8; C = 1; D = 12; E = -3.9

Molecules from the list above that contain a cyano group, in the order listed:
Keys: A = FGF22 binding; B = MLL AF4-AF9 inh; C = rRNA inh HTS; D = rRNA inh HTS OD600; E = rRNA inh HTS RFP
> N#Cc1ccc(C(=O)N(Cc2ccco2)c2c(N)n(Cc3ccccc3)c(=O)[nH]c2=O)cc1
  A = i; B = -3.4; C = -1; D = -6; E = 5.3
> N#Cc1ccc(C=NN2CCCCCC2)cc1
  A = i; B = 21; C = 42; D = -43; E = -17

Bioassay records as filed in PubChem BioAssay.
